KCNQ2 pot = potentiators of rat KCNQ2 potassium channel; hit rate 0.54% among 310,000; CHO-K1 KCNQ2, FluxOR thallium flux fluorescence; stronger effect = higher value; B-score at 10 µM; Potassium voltage-gated channel subfamily KQT member 2 (Rattus norvegicus), O88943;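 active means fluorescence ratio B-score at least 3 SD of library B-scores, with initial fluorescence B-score within 3 SD, cut at about 5.3 in these data; same plate scores as AID 2156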;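 further: B-score of peak minus minimum over baseline fluorescence ratio after K+ and Tl+ stimulus; positive B-score means potentiation of KCNQ2 with more thallium influx and brighter signal; only the inactives scoring about 0 or higher are listed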
Target sequence (O88943 whole entry, looked up): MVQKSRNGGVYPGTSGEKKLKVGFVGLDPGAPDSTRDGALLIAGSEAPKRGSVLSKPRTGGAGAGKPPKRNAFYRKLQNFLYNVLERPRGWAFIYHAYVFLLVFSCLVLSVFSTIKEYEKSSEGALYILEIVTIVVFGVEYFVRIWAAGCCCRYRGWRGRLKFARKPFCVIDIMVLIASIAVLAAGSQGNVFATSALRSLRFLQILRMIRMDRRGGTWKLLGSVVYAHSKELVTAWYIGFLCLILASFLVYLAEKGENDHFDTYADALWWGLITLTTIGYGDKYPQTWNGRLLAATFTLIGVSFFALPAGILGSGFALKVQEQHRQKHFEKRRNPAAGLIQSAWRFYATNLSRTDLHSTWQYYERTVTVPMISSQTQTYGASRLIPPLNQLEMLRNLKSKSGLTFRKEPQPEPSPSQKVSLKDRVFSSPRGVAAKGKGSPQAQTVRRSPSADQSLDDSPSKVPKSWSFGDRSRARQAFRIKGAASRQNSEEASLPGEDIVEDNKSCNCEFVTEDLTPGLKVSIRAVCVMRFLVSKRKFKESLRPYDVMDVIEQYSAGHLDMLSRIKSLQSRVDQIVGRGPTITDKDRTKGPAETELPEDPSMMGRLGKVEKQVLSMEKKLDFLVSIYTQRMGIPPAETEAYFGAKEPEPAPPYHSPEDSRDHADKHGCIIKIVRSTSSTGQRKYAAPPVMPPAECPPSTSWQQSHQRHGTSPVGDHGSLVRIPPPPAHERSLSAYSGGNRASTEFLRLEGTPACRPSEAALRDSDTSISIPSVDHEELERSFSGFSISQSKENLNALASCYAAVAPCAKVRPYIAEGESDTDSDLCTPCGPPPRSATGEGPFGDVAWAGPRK
KCNQ2 pot baseline = second read-out of KCNQ2 pot, no call of its own (marks repeat the call); B-score; compound at 10 µM; measured here: initial fluorescence intensity artifact check;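 brightness before thallium and not channel activity; 0 = typical well and far values either way flag optical interference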
Active calls of the source: *.

Preview, six compounds:
SMILES	KCNQ2 pot	KCNQ2 pot baseline
O=C(NCc1ccco1)c1ccc2c(c1)CCO2	1.1	0.56
O=C(Cc1ccccc1)NCCc1c[nH]c2ccccc12	3.3	-0.87
C/C(=N\N=C1\NC(=O)C(CC(=O)Nc2ccccc2F)S1)C1CCCCC1 (centres undefined)	0.25	-1.2
Cn1nnc(NC(=S)NC(=O)c2cc3ccccc3o2)n1	0.72	-1.1
COc1ccc(-c2c(C)oc3c(CN4CCCCC4C)c(O)ccc3c2=O)cc1OC (centres undefined)	0.52	2.2
Cc1ccc(NC(=O)Cn2nc(C)c3ccccc3c2=O)cc1F	1	0.08

This part in full, repeating the preview:
SMILES	KCNQ2 pot	KCNQ2 pot baseline
O=C(NCc1ccco1)c1ccc2c(c1)CCO2	1.1	0.56
O=C(Cc1ccccc1)NCCc1c[nH]c2ccccc12	3.3	-0.87
C/C(=N\N=C1\NC(=O)C(CC(=O)Nc2ccccc2F)S1)C1CCCCC1 (centres undefined)	0.25	-1.2
Cn1nnc(NC(=S)NC(=O)c2cc3ccccc3o2)n1	0.72	-1.1
COc1ccc(-c2c(C)oc3c(CN4CCCCC4C)c(O)ccc3c2=O)cc1OC (centres undefined)	0.52	2.2
Cc1ccc(NC(=O)Cn2nc(C)c3ccccc3c2=O)cc1F	1	0.08
O=C(c1ccccc1Cl)N1CCc2ccccc2C1	0.02	0.64
CCCn1c(N)c(Sc2ccc([N+](=O)[O-])cc2)c(=O)n(CCC)c1=O	1.4	0.71
CC1=C(C(=O)OC2CCCCC2)C(c2ccccc2Br)NC(=O)N1 (centres undefined)	1.7	0.04
O=C(NNC(=O)c1sccc1-n1cccc1)Nc1ccc(F)cc1	0.77	-0.25
CCc1nnc(NC(=O)CSc2nnc(C)n2-c2ccc(C)cc2)s1	0.95	2.7
CCN(CCCNC(=O)COc1cc(=O)n(CC)c2ccccc12)c1ccccc1	0.03	1.8
CC(C)(C)NC(=O)CN1CCC(O)(c2ccccc2)CC1	0.31	0.25
COc1ccc(OC)c(S(=O)(=O)N2CCC(C(=O)N3CCOCC3)CC2)c1	1.3	-0.14
Cc1cccc(N(CC(=O)NC(C)(C)C)C(=O)CCC(=O)Nc2ccccn2)c1	0.57	-2
COc1ccc(C(=O)C2CCCN(Cc3cccn3-c3ccccn3)C2)c(C)c1 (centres undefined)	1.4	0.52
CCOC(=O)c1cnn(-c2cc(C)cc(C)c2)c1N	0.05	1.6
COc1ccc(/C(N)=N/OC(=O)CCc2ccccc2)cc1	0.42	-0.03
O=C(CSc1nc(-c2ccccc2)cc(=O)[nH]1)Nc1ccccc1	0.15	-0.42
Cc1ccc(-c2ccc(=O)[nH]n2)cc1	0.46	-0.68
O=C(c1cccc(C(F)(F)F)c1)N1CCc2c([nH]c3ccccc23)C1C(F)(F)F (centres undefined)	2.5	-1.2
Cc1ccc(C)c(NC(=O)/C(C#N)=C/c2ccc(Sc3nncn3C)c([N+](=O)[O-])c2)c1	1.8	0.21
O=C(CN1c2cccc3cccc(c23)S1(=O)=O)NCc1ccc2c(c1)OCO2	0.56	0.46
Cc1ccc(C(=O)NCC(=O)NCCCc2ccccc2)cc1	0.05	2.2
O=C1NC(=S)S/C1=C\c1coc2ccc(O)cc2c1=O	0.44	-1.4
O=C(COC(=O)CC1CC2CCC1C2)Nc1c(F)cccc1F (centres undefined)	0.49	-2.3
O=S(=O)(Cc1ccc(Cl)cc1)C1CCCCC1O (centres undefined)	0.06	-1.9
O=C(NC1CCCc2ccccc21)C12CC3CC(CC(O)(C3)C1)C2 (centres undefined)	0.3	0.22
O=C(NCCO)c1cc2c(s1)CCC2	0.14	-3.2
CCN1CCN(c2ccc(NC(=O)c3ccc4c(c3)[nH]c(=O)n4Cc3ccc(F)cc3)cc2)CC1	0.05	0.25
COc1cc(C(=O)Nc2ccc(Br)cc2C(=O)c2cc(OC)c(OC)c(OC)c2)cc(OC)c1OC	1.1	0.04
COc1ccccc1C(=O)Nc1ccccc1C(=O)NC1CCCCC1	0.1	-0.34
COc1ccc(C)cc1S(=O)(=O)N1CCCCCC1	1.7	0.09
Cc1cccc2cc(CN(Cc3ccccc3)C(=S)NCCCN(C)C)c(=O)[nH]c12	0.59	-0.64
CN(/N=C/c1cccnc1)c1cnc2ccccc2n1	0.91	0.26
COCCn1c(C)cc(C(=O)COc2ccc(C)nc2[N+](=O)[O-])c1C	0.38	-0.6
Cn1c(N)c(C(=O)COC(=O)C2(c3ccccc3F)CCCC2)c(=O)n(C)c1=O	1.8	-0.22
CCCc1cc(=O)n2[nH]c(NCc3ccc(OC)cc3)nc2n1	0.12	-0.29
O=C(/C(=C/O)N=Nc1ccccc1Cl)c1ccccc1	0.06	-1.5
CCCCOc1ccc(-c2c(C#N)c(N)nc(SCC(N)=O)c2C#N)cc1	0.75	1.5
Cc1ccccc1C(=O)Nc1nnc(CC(=O)N/N=C/c2ccco2)s1	0.08	0.89
O=C(c1ccc(Cl)cc1)N1N=CCC1(O)c1ccc(Cl)cc1 (centres undefined)	0.24	-0.06
O=C(Nc1ncc(Cc2cccc(Cl)c2Cl)s1)c1ccc([N+](=O)[O-])cc1	0.36	2.5
Cc1[nH]nc(-c2ccc(OCc3cnn(-c4ccccc4)c3)c(C)c2O)c1Oc1ccccc1	3	0.88
COc1ccc(C(=O)Nc2cc(OC)cc3cccnc23)cc1	0.26	-1.3
O=C(Nc1ccc2c(c1)OCO2)c1cccs1	0.61	0.04
CCOC(=O)c1ccc(CNC(=O)CSc2nnnn2-c2ccc(Cl)cc2)o1	0.42	0.95
COC(=O)c1ccc(OC)cc1OCC(=O)N1CCN(c2ccc(F)cc2)CC1	0.77	0.95
COc1ccc2nc(/N=C/c3c(C)[nH]n(-c4ccc(C)cc4C)c3=O)sc2c1	20*	0.61*
CCCCN(C(=O)CSc1nnnn1-c1ccccc1OC)C1CCS(=O)(=O)C1 (centres undefined)	0.37	-0.03
Cc1ccc(CN2CCNC(=O)C2CC(=O)NCCCn2cccn2)o1 (centres undefined)	1.2	-0.99
O=C(c1ccc(CS(=O)(=O)c2ccc(Br)cc2)o1)N1CCCCCC1	0.26	-1.2
Oc1oc(-c2ccccc2)nc1/C=N/c1nccs1	1.8	-0.6
CCCn1nc(NC(=O)C2CCCO2)c2cc3ccc(C)cc3nc21 (centres undefined)	0.47	1.5
Cc1cccc([C@@H]2[C@@H]3C(=O)N(Cc4ccccc4)C(=O)[C@@H]3[C@]3(Cc4ccccc4)C(=O)N(c4cccc(F)c4)C(=O)N23)c1	0.1	0.25
O=C(O)c1cccc(CN2C(=O)c3ccccc3C2=O)c1	0.55	0.5
CC(=O)Nc1ccc(S(=O)(=O)Nc2ccc(S(=O)(=O)Nc3nccs3)cc2)cc1	1.1	-0.62
CCCCN1C(=O)C(O)=C(C(C)=O)C1c1ccc(OC)cc1OC (centres undefined)	1.4	-0.25
O=C(Cn1nnc2ccccc21)N/N=C\C=C\c1ccccc1	0.03	0.55
COc1cccc(-n2c(SCC(N)=O)nc3ccccc3c2=O)c1	0.67	-0.47
Remaining list, next part:
SMILES	KCNQ2 pot	KCNQ2 pot baseline
CC(CCc1ccccc1)N1CCN(Cc2ccccc2)CC1 (centres undefined)	0.46	1.9
CCOC(=O)N1CCN(C(=S)Nc2cc(S(=O)(=O)N3CCOCC3)ccc2Cl)CC1	1.2	-0.14
Cc1ccc(N(C(=O)Cn2nnc3ccccc32)C(C(=O)NCc2ccco2)c2cccnc2)cc1 (centres undefined)	2.6	0.01
CCn1cc(Cl)c(C(=O)Nc2c(C)nn(Cc3c(F)c(F)c(F)c(F)c3F)c2C)n1	1.2	-0.38
Cc1ccc(S(=O)(=O)N(CC(=O)Nc2ccc(F)cc2)C(=O)N2CCN(C)CC2)cc1	1.6	-0.21
Cc1cc2ccccc2n2c(SCC(=O)Nc3ccc(S(=O)(=O)N4CCC(C)CC4)cc3)nnc12	0.07	-1
Cc1ccc2c(c1)c1c(n2CC(O)Cn2nc(C)c(Br)c2C)C(=O)CCC1 (centres undefined)	1.3	-1.6
COc1ccc(N(Cc2cc3cc(C)ccc3[nH]c2=O)C(C)=O)cc1	0.02	-1.7
O=C(CSc1ncccn1)NN=C1CCCCCCC1	0.04	-2
Cc1noc2ncnc(Sc3ccc(Cl)cc3)c12	0.32	-1.4
CCc1ccc(-n2c(C)cc(/C=N/NC(=O)OC)c2C)cc1	1.2	0.48
Clc1ccccc1CNc1ncnc2nc[nH]c12	0.67	-3.2

Three structures already listed, sorted by molecular weight, ascending:
SMILES	KCNQ2 pot	KCNQ2 pot baseline
Cc1noc2ncnc(Sc3ccc(Cl)cc3)c12	0.32	-1.4
CCc1ccc(-n2c(C)cc(/C=N/NC(=O)OC)c2C)cc1	1.2	0.48
Cc1ccc2c(c1)c1c(n2CC(O)Cn2nc(C)c(Br)c2C)C(=O)CCC1 (centres undefined)	1.3	-1.6

(more compounds)
SMILES	KCNQ2 pot	KCNQ2 pot baseline
O=C(CSc1ncnc2sc(-c3ccccc3)cc12)NC1CCS(=O)(=O)C1 (centres undefined)	0.21	-0.59
CSCCC(NC(=O)c1cccc(C)c1)C(=O)OCN1C(=O)c2ccccc2C1=O (centres undefined)	0.4	0.13
COc1cccc(NC(=O)N2CCCC2C(=O)NC(C)C)c1 (centres undefined)	1.9	0.01
Cc1cc(S(=O)(=O)n2[nH]c(=O)c(CCO)c2C)c(Cl)cc1Cl	0.52	1.1
CCOC(=O)c1cc(NC(=O)c2c(C)noc2C)cc(C(=O)OCC)c1	0.41	-0.29
Cc1cc2nc(-c3ccncc3)cc(C(F)(F)F)n2n1	1.8	-1.5
CC1CN(S(=O)(=O)c2ccc(NC(=O)c3cc(-c4ccccc4O)n[nH]3)cc2)CC(C)O1 (centres undefined)	0.6	-0.05
COc1ccc(Cl)cc1NC(=O)NCCCl	0.06	1.9
COc1ccc(C(=O)COC(=O)C(CCSC)NC(=O)COc2ccccc2)cc1 (centres undefined)	0.22	0.94
OCC1CCCCN1C(=S)NCc1ccco1 (centres undefined)	0.38	-0.67
CCn1c(SCC(=O)Nc2ccccc2F)nnc1-c1ccoc1C	0.4	0.2
Cc1ccccc1NS(=O)(=O)c1nnc(NC(=O)c2ccccc2F)s1	0.9	1.3

Some of the entries so far, with bars between the fields.
structure | KCNQ2 pot | KCNQ2 pot baseline
O=C(CN1c2cccc3cccc(c23)S1(=O)=O)NCc1ccc2c(c1)OCO2 | 0.56 | 0.46
CC(=O)Nc1ccc(S(=O)(=O)Nc2ccc(S(=O)(=O)Nc3nccs3)cc2)cc1 | 1.1 | -0.62
CCOC(=O)c1cnn(-c2cc(C)cc(C)c2)c1N | 0.05 | 1.6

Additional records
SMILES	KCNQ2 pot	KCNQ2 pot baseline
CCOc1ccc(NC(=O)CN(C)C(=O)c2ccccc2SCC(=O)N2CCCC2)cc1OCC	0.79	1.8
CC(=O)c1ccc(S(=O)(=O)N2CCN(C(=O)C3CCCC3)CC2)cc1	0.96	-0.04
Cc1nc2ccc(NC(=S)N3CCC(C)CC3)cc2nc1C	0.45	-1.2
Cc1cccc(NC(=O)NC2CC3CCC(C2)N3Cc2ccco2)c1 (centres undefined)	0.93	-0.27
CCCCCSc1nnc(-c2cc(Br)ccc2N)c(=O)[nH]1	0.31	-2.4
COC(=O)CN(C(=S)Nc1ccccc1)C1CC(=O)N(c2ccc(OC)cc2)C1=O (centres undefined)	0.38	0.06
CC(=O)Nc1cccc(C(=O)N/N=C/c2cccnc2)c1	0.13	1.5
O=C(Nc1ccon1)C12CC3CC(C1)CC(n1cnc([N+](=O)[O-])n1)(C3)C2	1.1	-0.67
O=C(Nc1ccccc1F)Nc1ccccc1F	0.01	0.78
Cc1cccc(NC(=S)NC(NC(=O)OCc2ccccc2)C(Cl)(Cl)Cl)c1 (centres undefined)	0.52	0.11
C=CCOc1ccc2c(c1)C(=NO)c1cc(OCC=C)ccc1-2	0.16	0.6
COc1ccc(Cl)cc1-c1n[nH]c(=S)n1C1CCCCC1	0.01	0.96

Retrieved by structure from above, 2 records:
SMILES	KCNQ2 pot	KCNQ2 pot baseline
COc1ccc(Cl)cc1-c1n[nH]c(=S)n1C1CCCCC1	0.01	0.96
O=C(Nc1ccon1)C12CC3CC(C1)CC(n1cnc([N+](=O)[O-])n1)(C3)C2	1.1	-0.67

(list continues)
SMILES	KCNQ2 pot	KCNQ2 pot baseline
CCOC(=O)C1C(=O)NC(C)C1c1ccccc1 (centres undefined)	1.6	-0.35
COc1cc2c(c(O)c1OC)-c1c(cc(OC)c(OC)c1OC)C[C@@H](C)[C@@H](C)C2	0.21	0.24
CC(=O)Nc1ccc(NC(=O)C(Sc2ccccc2)c2ccccc2)cc1 (centres undefined)	0.27	2.8
Cc1ccc(-n2nnc(-c3cccnc3)n2)cc1	0.85	0.22
CCOC(=O)c1ccc(NC(=O)C(=O)NCc2ccncc2)cc1	2.5	-0.36
Cc1ccc([N+](=O)[O-])cc1NC(=O)Nc1cccc(F)c1	1.8	-0.9
CCC1(C(=O)OC)NC(c2ccccc2OC)C2C(=O)N(C)C(=O)C21 (centres undefined)	0.31	0
COc1cccc(N2CCN(S(=O)(=O)c3ccc4c(c3)NC(=O)CS4)CC2)c1	0.26	-0.95
CN(C)C(CNC(=O)c1ccc2c(c1)S(=O)(=O)c1ccccc1C2=O)c1ccco1 (centres undefined)	1.2	-1.2
CN(CC(=O)NC1CCCCCC1)S(=O)(=O)c1ccc2c(c1)n(C)c(=O)c(=O)n2C	1.4	-1
CCN(CC)c1ccc(NC(=O)Cn2ncc3c(C)n(Cc4ccccc4F)c(C)c3c2=O)c(C)c1	0.08	0.19
CC(C)c1cc(C(F)(F)F)n2nc(C(=O)O)cc2n1	0.28	-1.1
Cc1ccc(S(=O)(=O)N2CCCC2CNC(=O)c2ccc3c(c2)OCO3)cc1 (centres undefined)	0.51	0.16
COc1cc(C(=O)O/N=C(\N)c2ccc([N+](=O)[O-])cc2)cc(OC)c1OC	0.42	1.1
Cc1ccc(NC(=O)c2ccc3ncsc3c2)cc1S(=O)(=O)N(C)C	2.8	-0.01
CCc1ccccc1NC(=O)Cn1cccc1C1=NC(c2ccccc2)CO1 (centres undefined)	0.13	2.6

Assay outcomes (PubChem BioAssay)

This is a subset. The share of hits here may be higher or lower than overall.
